Calb FLC: affects C. albicans growth with fluconazole | 0.57% of 300,000 active | C. albicans CaCi-2 (fluconazole-resistant clinical isolate) + fluconazole, Alamar Blue growth, 48 h | growth inhibition, % (test concentration not listed);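 active = most replicates above 75%; inconclusive = exactly half above 75%; inactive = most below 75%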;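 note: all wells also contain fluconazole at 8 µg/ml as a sub-toxic cotreatment; 0% = median of DMSO wells and 100% = median of geldanamycin control wells; wells of about 8 µL received 7.5 nL stock; the first replicate is given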
Beta2AR agonist: activates human beta-2 adrenergic receptor causing internalization; 0.43% of 340,000 active; Am2.2-beta2AR cells, FAP receptor internalization, flow cytometry; reference of the scale not given here; response, % (test concentration not listed);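 active = response above a set limit, near 3 SD of response in nonfluorescent compounds, cut at about 42% in these data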;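 note: stock transfer was 100 nL into about 11 µL; a reference agonist was the positive control; negative values mostly stem from fluorescent compounds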
rRNA inh HTS: inhibits bacterial ribosomal RNA function over humanized ribosomes; AID 720706; E. coli WT GFP vs humanized-ribosome RFP mutants, fluorescence, 24 h; active compounds read low; DMSO median 0, no signal -100; 1.6% of 350,000 active; GFP signal change (wild-type ribosome), % (test concentration not listed);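 active = significant combined selectivity score with lowered wild-type GFP, culture density cut under 30%, mutant RFP and density less affected; inactive = any of these conditions unmet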; note: one replicate is shown; some compounds called inactive have numbers as strong as hits
Beta cell apopt: blocks beta cell apoptosis; INS-1E cytokine-induced death, ATP luminescence, 48 h; percent of positive-control rescue, neutral wells zero; protection from apoptosis, % (concentration not given with the values); 0.8% of 300,000 active;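 active = all replicates at 75% or more, or half of them and the mean; inconclusive = half reach 75% but not the mean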;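 note: 0% = cytokine-treated negative control wells and 100% = positive control rescue; higher means more ATP so stronger rescue from cytokine killing; wells of about 40 µL received 100 nL stock; the first replicate is given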
LANA-H2B inh: blocks KSHV LANA binding to histone H2A/H2B. AID 2629. 0.6% of 320,000 active. Q9QR71. cell-free LANA-H2A/H2B peptide, fluorescence polarization. inhibition, % (test concentration not listed); in the data active = inhibition mostly above about 10%, no sharp cut-off; inactive = mostly below about 6.7%;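 note: stock transfer was 7.5 nL into about 10 µL; 0% = median of vehicle wells and 100% = median of positive control wells; one replicate is shown; the record names a cut of 25% in any replicate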
Target sequence (Q9QR71 whole entry, looked up): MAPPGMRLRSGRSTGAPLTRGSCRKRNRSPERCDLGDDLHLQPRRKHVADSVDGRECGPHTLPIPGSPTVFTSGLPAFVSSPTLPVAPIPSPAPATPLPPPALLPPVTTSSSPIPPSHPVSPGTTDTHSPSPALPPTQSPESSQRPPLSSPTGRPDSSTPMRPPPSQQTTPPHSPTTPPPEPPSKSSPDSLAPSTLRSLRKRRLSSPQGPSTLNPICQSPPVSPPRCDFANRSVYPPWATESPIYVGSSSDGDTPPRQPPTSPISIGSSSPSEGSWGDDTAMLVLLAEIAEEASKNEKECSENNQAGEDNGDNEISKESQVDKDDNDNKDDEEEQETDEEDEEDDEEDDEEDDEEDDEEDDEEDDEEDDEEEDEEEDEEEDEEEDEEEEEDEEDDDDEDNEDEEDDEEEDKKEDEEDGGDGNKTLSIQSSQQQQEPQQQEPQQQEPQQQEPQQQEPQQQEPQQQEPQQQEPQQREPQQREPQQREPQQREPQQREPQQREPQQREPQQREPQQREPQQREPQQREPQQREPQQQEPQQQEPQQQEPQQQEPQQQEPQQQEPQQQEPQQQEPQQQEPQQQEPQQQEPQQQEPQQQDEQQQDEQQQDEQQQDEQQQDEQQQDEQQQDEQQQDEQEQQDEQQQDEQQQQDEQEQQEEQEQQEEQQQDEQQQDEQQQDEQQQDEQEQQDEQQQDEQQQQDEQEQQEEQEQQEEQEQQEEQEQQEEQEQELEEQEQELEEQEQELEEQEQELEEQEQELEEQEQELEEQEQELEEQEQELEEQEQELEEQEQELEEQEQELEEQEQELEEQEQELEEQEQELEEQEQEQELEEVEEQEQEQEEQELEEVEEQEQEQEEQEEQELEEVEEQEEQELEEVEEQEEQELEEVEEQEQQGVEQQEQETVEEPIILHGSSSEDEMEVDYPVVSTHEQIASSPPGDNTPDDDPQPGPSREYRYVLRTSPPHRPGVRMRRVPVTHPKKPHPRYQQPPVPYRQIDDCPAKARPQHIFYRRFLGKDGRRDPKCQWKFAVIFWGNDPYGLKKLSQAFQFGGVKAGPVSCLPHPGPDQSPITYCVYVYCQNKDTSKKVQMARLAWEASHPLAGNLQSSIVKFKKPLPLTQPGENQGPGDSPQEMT
ALR inh: human ALR oxidase inhibition via reduced H2O2; P55789; purified ALR, DTT oxidation, H2O2 HRP-luminol luminescence; inhibition, % (test concentration not listed); 3.8% of 290,000 active;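 active = mean and each replicate at 75% or more; inconclusive = only one of the two met; inactive = neither met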;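 note: stock transfer was 7.5 nL into about 7.5 µL; 0% = neutral wells and 100% = wells with inactivated enzyme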
T cruzi inh: T. cruzi replication inhibition; T. cruzi beta-gal in NIH3T3, luminescence, 90 h; inhibition, % (concentration not given with the values); 1.4% of 300,000 active; AID 1885;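 active = mean inhibition across valid replicates above about 55%, limit read from the data; inconclusive = mean below that limit but half or more replicates reach it; inactive = mean below it, under half of replicates reach it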;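 note: signal also drops with host cell toxicity which is not excluded here; 0% = plate median of DMSO wells and 100% = zero luminescence signal; higher percent means less beta-gal luminescence so fewer parasites; stock transfer was 50 nL into about 50 µL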
Bfl-1 A1 inh: inhibitors of the anti-apoptotic protein A1, read as caspase activation. MEF A1-2A-BIM cells, Caspase-Glo 3/7 luminescence, 3 h; percent of clofoctol response, vehicle zero. caspase activation, % (test concentration not listed). 0.066% of 330,000 active. AID 2462;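 active = over half of replicate activation scores above 10%, or exactly half above 10 with the replicate mean above 10; inconclusive = replicate mean below 10 yet half the replicates above 10; inactive = over half of replicates below 10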;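 note: wells of about 30 µL received 50 nL stock; many hits fall short of the cut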
rRNA inh HTS OD600: second read-out of rRNA inh HTS, no call of its own (marks repeat the call); OD600 change, %; measured here: OD600 growth;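 optical density of the mix in the first replicate; 0 = DMSO median and -100 = no signal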
rRNA inh HTS RFP: second read-out of rRNA inh HTS, no call of its own (marks repeat the call); RFP signal change, %; measured here: RFP humanized mutant strains;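 first replicate; 0 = DMSO median and -100 = no signal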
An asterisk follows results filed as active; ? = inconclusive; · = no result given. These rows are one share of the data, so the mix of outcomes need not match the whole.

SMILES	Calb FLC	Beta2AR agonist	rRNA inh HTS	rRNA inh HTS OD600	rRNA inh HTS RFP	Beta cell apopt	LANA-H2B inh	ALR inh	T cruzi inh	Bfl-1 A1 inh
C/C(=N\Nc1cc(-c2ccccc2)nc(-c2ccccc2)n1)c1ccc(O)c(C)c1	-4.4	19.8	-1.9	-11.9	7.9	17.1	-1.6	-1.1	51.0	0.0
COc1ccc(CNC(=O)CN(C(=O)CCC(=O)Nc2ccccn2)c2ccccc2OC)cc1	0.4	0.2	·	·	·	-7.4	2.9	5.9	15.3	0.1
Cc1ccncc1C(N)=O	3.1	5.0	11.5	9.6	-2.1	6.7	4.1	·	2.7	1.7
CC(C)n1cc(/C=C2/SC(=O)N(CC(=O)Nc3ccc4c(c3)OCO4)C2=O)c2ccccc21	-11.8	6.7	·	·	·	6.4	1.3	-4.3	17.8	1.4
COc1cccc(CN(C)C(=O)CN2C(=O)NC(c3ccccc3)(c3ccccc3)C2=O)c1OC	·	0.3	-15.4	-20.1	-3.5	1.2	-10.7	-2.5	·	-0.1
O=C(CCc1nc(-c2ccccc2F)no1)NC1CCCCC1	-7.2	-4.1	·	·	·	2.6	-0.3	-1.0	4.5	-0.3
CCN(CC(=O)Nc1c(F)cccc1F)C(=O)CCCc1cccs1	·	0.6	5.2	6.5	1.5	-2.4	5.0	5.5	·	-1.1
COc1cc(C(=O)NNC(=S)Nc2ccc(S(N)(=O)=O)cc2)cc(OC)c1OC	0.4	4.0	14.8	8.7	-0.4	-13.3	-2.5	72.4	4.3	-0.7
Cn1c(=O)c2c(nc(SCCN3CCOCC3)n2Cc2ccc(F)cc2)n(C)c1=O	-0.5	-0.7	·	·	·	-4.0	1.3	1.7	-5.1	-0.5
Cc1ccc2c(=O)cc(C(=O)NCc3ccccc3)oc2c1C	6.1	9.1	6.3	10.6	-2.5	-5.4	0.4	-15.2	4.5	-0.1
CCOn1c(SC(C)C)nc2ccccc2c1=O	0.0	1.2	·	·	·	6.0	-5.1	-5.8	12.2	-0.1
CCOc1ccc(Cn2nnc(C(=O)Nc3cc(OC)cc(OC)c3)c2N)cc1	-0.4	-3.1	5.9	12.5	5.7	-5.2	1.6	-13.5	40.9	-0.5
Cn1c(=O)c2c(nc(NCc3ccco3)n2CC(O)CO)n(C)c1=O (centres undefined)	-0.2	-2.3	7.7	7.7	-5.1	-1.3	-6.1	3.0	-3.7	0.1
COc1ccccc1NC(=O)CC1CCCC1	-10.2	-2.4	6.3	9.0	-0.8	0.6	-0.7	-6.2	-14.7	0.1
COc1cc(-c2c(-c3cc(OC)c(OC)c(OC)c3)noc2C)ccc1F	-7.4	·	-22.9	-23.3	-8.4	62.5	2.4	1.6	25.8	0.4
COCCN(Cc1ccco1)C(=O)C1CCCN(c2ncnc3c2nc2n3CCCCC2)C1 (centres undefined)	2.8	1.5	-19.4	-10.4	0.3	-0.6	0.1	-0.9	-10.0	0.5
Cc1c(C)c2ccc(OCC(=O)N3CCN(c4ccc(F)cc4)CC3)c(C)c2oc1=O	-1.6	-3.9	-7.8	-6.2	-6.7	1.9	2.5	-3.5	4.1	-0.2
CC(C)c1ccc(CN2CC(C(=O)Nc3ccccc3)CC2=O)cc1 (centres undefined)	-17.9	-2.5	-2.7	8.4	-0.5	-13.1	3.0	-3.2	-6.7	-0.8
O=C1Nc2ccc(Br)cc2/C1=C/C1CC=CCC1 (centres undefined)	-2.6	21.2	-47.1	-39.4	-8.1	-4.1	-1.4	·	13.1	0.7
CCN(CC)c1ccc(NC(=O)CSc2nnc(N)s2)cc1C	·	7.8	8.4	-1.0	4.3	-3.2	2.7	59.3	·	0.2
COC(C(=O)Nc1ccc(Cl)cc1C)c1ccccc1 (centres undefined)	7.5	-13.6	6.5	2.6	-4.4	-3.1	4.9	·	-11.0	0.3
Cc1ccc(NC(=O)C(C)OC(=O)CSc2ccccc2)cc1 (centres undefined)	·	-2.1	-10.1	-10.5	-0.8	-14.0	8.4	-4.0	·	-1.1
Cn1nc(-c2ccc(N3CCOCC3)c(NS(=O)(=O)c3ccc(Cl)cc3)c2)c2ccccc2c1=O	·	-4.5	·	·	·	6.0	5.7	-23.9	·	?
O=C(/C=C/c1cn(-c2ccccc2)nc1-c1ccccc1)Nc1ccc(C(=O)O)cc1	-0.7	3.1	-34.5	-33.2	4.1	0.4	1.6	·	3.9	0.0
CN(C)c1cccc2c(S(=O)(=O)N3CCCC3)cccc12	13.9	-6.0	-23.2	-25.8	-0.3	-3.2	-5.8	-4.3	8.2	-1.3

(more compounds)
SMILES	Calb FLC	Beta2AR agonist	rRNA inh HTS	rRNA inh HTS OD600	rRNA inh HTS RFP	Beta cell apopt	LANA-H2B inh	ALR inh	T cruzi inh	Bfl-1 A1 inh
Cc1ccc2cc3cc(C(=O)NCCN4CCOCC4)oc3nc2c1	-3.8	12.3	·	·	·	-0.6	-11.3	5.5	2.9	0.1
CCOC(=O)c1c(C(F)(F)F)cc(-c2ccc(F)cc2)nc1C	-6.5	-5.6	·	·	·	3.0	3.1	·	-16.7	0.0
COc1cccc2cc(-c3cc(=O)oc4cc(C)c(O)cc34)oc12	6.1	3.7	8.4	13.6	0.2	·	-9.3	-6.4	-14.8	-0.8
O=C(Nc1ccc(Cl)cc1)c1cc(S(=O)(=O)N2CCOCC2)cs1	-1.8	1.1	·	·	·	-6.1	3.6	37.2	-19.2	-0.1
O=C(NC1CCCC1)C(c1ccncc1)N(C(=O)c1ccco1)c1ccc(Cl)cc1 (centres undefined)	-11.2	4.3	-0.5	1.2	-1.6	-2.6	-3.1	-3.3	1.0	-0.5
COc1ccccc1NS(=O)(=O)c1ccc(O)c(C(=O)OCC(=O)Nc2ccccc2F)c1	2.1	4.6	-13.4	-16.3	6.5	-6.2	1.0	3.5	15.6	-0.4
COc1cccc(/C=N/NC(=O)c2cccc3ccccc23)c1OC	2.8	1.0	15.9	16.5	4.3	-5.1	-1.1	1.6	-7.1	1.0
C/C(=N\NC(=O)c1ccc(F)cc1)c1cccc(NC(=O)c2ccco2)c1	-13.9	-8.5	·	·	·	4.2	3.3	-4.4	-8.2	-0.1
CC1Cc2ccccc2N1C(=S)NC(=O)C1(C)CC1(Cl)Cl (centres undefined)	-11.4	-1.3	-53.5	-74.8	-23.6	3.5	-3.4	-2.0	-14.0	0.9
Cc1ccc(S(=O)(=O)c2cc(OC(=O)c3ccco3)ccc2OC(=O)c2ccco2)cc1	0.1	11.9	·	·	·	-1.2	-2.7	49.0	-0.7	0.2
O=C1c2cccc3cc([N+](=O)[O-])cc(c23)C(=O)N1c1ccccc1O	45.8	-11.9	59.6	4.4	16.8	·	-1.3	-6.6	58.3*	-0.2
Cc1nc(-c2ccc(Cl)cc2)sc1C1(C)CC(c2cccnc2)=NO1 (centres undefined)	-0.8	-7.3	-53.4	-77.5	-26.1	-7.8	-1.7	5.7	-7.7	-2.0
O=C1CC(c2nc3ccccc3[nH]2)CN1c1ccccc1F (centres undefined)	0.8	-6.9	-6.7	-6.7	-4.9	2.1	-1.5	10.0	-1.7	0.6
CC1CCCC(C)N1C(=O)CSc1nnc(COc2ccccc2)n1-c1ccccc1 (centres undefined)	3.9	-4.6	·	·	·	2.3	2.7	-2.3	24.2	0.8
CCOc1ccc(Nc2nc(N)c([N+](=O)[O-])c(N3CCN(CC)CC3)n2)cc1	-24.7	-3.6	-0.8	15.3	6.3	-6.3	3.7	-1.6	3.1	-0.5
COc1ccccc1N(/N=C1\Sc2ccccc2C1=O)C(C)=O	-2.5	11.6	4.1	3.8	33.3	0.8	1.8	12.3	0.4	-7.2
CN1C(=O)/C(=C/c2ccccc2Cl)Sc2ccc(C(=O)N3CCCC3)cc21	21.6	-4.5	-40.0	-70.5	-6.6	21.7	4.0	2.0	-3.9	0.0
CCCCNC(=O)NC1C(NC(=O)NCCCC)N(C)C(=O)N1C (centres undefined)	6.9	12.6	·	·	·	-8.7	-3.7	-1.1	-19.4	0.9
O=C(COc1ccccc1)N1CCCC1	-4.0	-1.7	-2.1	1.9	-5.9	-3.3	0.9	1.0	-13.2	0.2
CCCN(CCC)C(=O)c1cn(CC)c2ccc(S(=O)(=O)N3CCCCC3)cc2c1=O	-8.0	0.8	-2.5	-5.7	-3.8	-0.6	3.8	-0.2	-0.1	0.3
CC(C)CCN1CCN(Cc2cnc(-c3ccccc3)s2)CC1CCO (centres undefined)	-5.7	-4.4	12.0	5.0	0.6	-0.5	-2.6	·	27.3	-0.1
CCc1ccc(N(CC(=O)NCCc2ccccc2)C(=O)CCC(=O)Nc2ccccn2)cc1	7.9	-10.9	1.8	-6.8	2.6	-0.8	-9.6	·	11.0	-0.2
CC(=O)Nc1ccc(C(=O)COC(=O)CN2C(=O)NC3(CCCCC3C)C2=O)cc1 (centres undefined)	·	-1.5	8.9	11.4	0.6	-3.6	-8.7	-2.1	·	0.5
COc1ccc(-c2nnc(NC(=O)c3cc(Cl)ccc3Cl)o2)cc1	83.3*	11.3	-42.8	-54.3	-8.4	7.4	4.1	·	7.6	0.4
CCOC(=O)COc1ccc(S(=O)(=O)Nc2cccc(SC)c2)cc1	1.3	10.7	·	·	·	-4.0	-1.7	-7.0	-8.6	0.4

Additional results
SMILES	Calb FLC	Beta2AR agonist	rRNA inh HTS	rRNA inh HTS OD600	rRNA inh HTS RFP	Beta cell apopt	LANA-H2B inh	ALR inh	T cruzi inh	Bfl-1 A1 inh
Cc1ccc(C(=O)N[C@H](C(=O)Nc2ccc(F)cc2)C(C)C)cc1	-15.4	-6.3	9.5	7.8	-0.6	0.5	-13.8	-0.7	4.2	1.1
COc1ccc(S(=O)(=O)CCC(=O)N(C)c2ccc(OC)cc2OC)cc1	0.3	5.0	·	·	·	-2.9	6.0	-7.3	8.8	0.2
O=C(CN(C(=O)CCC(=O)Nc1ccccn1)c1ccc2c(c1)OCO2)NCc1ccc(F)cc1	-9.8	-3.3	5.6	7.2	0.2	-15.0	-1.4	·	17.5	-0.1
CCN(CC)c1nc2ccccc2[nH]1	-15.4	6.9	·	·	·	-1.6	0.5	68.1	-2.9	0.2
CCc1ccc(NC(=O)C2CCCCC2C(=O)O)cc1 (centres undefined)	1.9	-4.7	·	·	·	6.5	3.2	-4.6	-2.4	1.3
S=C(NN=C1C2CC3CC(C2)CC1C3)Nc1ccccc1	-1.2	-2.7	·	·	·	4.1	2.2	9.5	7.7	0.8
CC(=O)Nc1nc2cc3c(cc2s1)OCO3	-4.6	-4.8	-1.8	-9.6	-2.0	-4.0	-4.6	-3.8	-3.0	-6.4
CCCn1c(SCCN2C(=O)c3ccccc3C2=O)n[nH]c1=O	9.6	-6.2	·	·	·	-2.5	-6.7	-8.9	7.4	-0.5
O=C(c1ccco1)N1C2C=CC(C2)C1(C(F)(F)F)C(F)(F)F (centres undefined)	-2.3	5.2	·	·	·	-3.1	1.6	-3.5	-13.5	0.8
COc1ccc(C/C(C)=N\NC(=O)c2cn(C)c3ccccc23)cc1OC	-19.9	-5.8	-1.6	-7.2	-1.4	-3.9	-1.2	-3.4	-7.7	0.2
